AmpC inh no det: AmpC beta-lactamase inhibition, detergent-free assay; P00811; AmpC nitrocefin hydrolysis, absorbance 480 nm, no detergent; potencies from a single point are estimates; Potency, µM (highest dose often 28.7 µM), inactives show at the highest dose activity change, negative = inhibition; hit rate 1.8% among 71,000; AID 585; active = falling curve, for most hits resting on a single point; inconclusive = weak or doubtful change; inactive = flat or rising curve; also: % of control where 0% means no effect; about half of the hits show no inhibition at the top dose; a quarter of the inactives give rising signals
Target sequence (P00811 whole entry, looked up): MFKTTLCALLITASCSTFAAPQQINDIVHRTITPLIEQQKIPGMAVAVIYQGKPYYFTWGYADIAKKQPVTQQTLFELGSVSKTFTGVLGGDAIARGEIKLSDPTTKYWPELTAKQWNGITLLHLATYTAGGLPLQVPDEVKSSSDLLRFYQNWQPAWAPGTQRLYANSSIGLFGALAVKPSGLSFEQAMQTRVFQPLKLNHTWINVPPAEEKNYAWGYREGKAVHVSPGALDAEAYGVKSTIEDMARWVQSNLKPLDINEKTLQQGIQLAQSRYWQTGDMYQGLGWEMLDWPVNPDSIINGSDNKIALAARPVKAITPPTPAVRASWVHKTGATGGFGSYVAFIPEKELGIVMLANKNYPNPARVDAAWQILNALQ
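AmpC, 20 mM phosphate pH 7.0; 15 min cpd preinc, RT; start with nitrocefin (800 uM stock); A480 kinetic read, 20 s intervals, 4 min. No-enzyme wells = negative control.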
An asterisk follows results filed as active; ? = inconclusive; [ ] = dose if it differs, or a comment. Potency is read from the fitted curve at half-maximal effect. An excerpt (hit frequency here may not be typical).

The opening five entries, to show the layout:
SMILES,AmpC inh no det
N#CCCn1c(=O)c(-c2cc(F)cc(F)c2)nc2cnc(N3CCOCC3)nc21,8%
COC(=O)Nc1c(C)nn(Cc2ccccc2C)c1C,12%
COC(=O)c1ccc(N2C(=O)CC(NCc3ccccc3)C2=O)cc1 (stereo not drawn),-2%
Cc1cc(=O)n2nc(N3CCCC3C(=O)NCc3ccccn3)sc2n1 (stereo not drawn),-15%
COc1ccc(C(=O)N2CCC[C@@]3(CCN(c4cccc(-c5ccccc5)c4)C3)C2)cc1,66%

Main list, repeating the preview:
SMILES,AmpC inh no det
N#CCCn1c(=O)c(-c2cc(F)cc(F)c2)nc2cnc(N3CCOCC3)nc21,8%
COC(=O)Nc1c(C)nn(Cc2ccccc2C)c1C,12%
COC(=O)c1ccc(N2C(=O)CC(NCc3ccccc3)C2=O)cc1 (stereo not drawn),-2%
Cc1cc(=O)n2nc(N3CCCC3C(=O)NCc3ccccn3)sc2n1 (stereo not drawn),-15%
COc1ccc(C(=O)N2CCC[C@@]3(CCN(c4cccc(-c5ccccc5)c4)C3)C2)cc1,66%
CCC(=O)N1CCc2cc(Br)cc(S(=O)(=O)NCCN3CCCCC3C)c21 (stereo not drawn),1%
CCOC(=O)N1CCN(C(=O)c2ccc3c(=O)n(CCc4ccccc4)c(=S)[nH]c3c2)CC1,117%
CCN1C(=O)c2cccc3c(NC(=O)c4cccc(N5C(=O)CCC5=O)c4)ccc1c23,38%
O=c1c(Cc2ccccc2O)c(O)nc2n1CCCS2,-14%
CCOc1ccc2cc(C#N)c(SCC(=O)N3CCC(C)CC3)nc2c1,21%
O=C(COc1ccc(S(=O)(=O)NCc2ccccc2)cc1Cl)N1CCOCC1,27%
CCOc1ccccc1C1NC(=O)NC(C)=C1C(=O)OC1CCCCC1 (stereo not drawn),6%
O=C(CSc1ncn[nH]1)Nc1nc(-c2ccccc2)ns1,39%
Cc1c(N2C(=O)c3ccc4c5c(ccc(c35)C2=O)CC4)c(=O)n(-c2ccccc2)n1C,4%
CCC(=O)c1ccc(OCC(O)CN2CC(C)OC(C)C2)cc1 (stereo not drawn),11%
O=C(NCc1ccco1)NCC(F)(F)F,2%
C=CCOC(=O)C1=C(C)N=C2SCCC(=O)N2C1c1ccc(OC(=O)c2ccco2)cc1 (stereo not drawn),48%
CCC1(C)Cc2ccccc2-c2nc3n(c(=O)c21)CC(C(=O)O)S3 (stereo not drawn),3%
CCc1ccccc1NC(=O)c1nnn(CC(=O)Nc2cccc(C)c2)c1N,-5%
N#C[C@@H](N=Nc1ccccc1C(=O)O)C(N)=O,-3%[5.75 µM]
CC(=O)N(c1ccc(C)cc1)C1C=CS(=O)(=O)C1 (stereo not drawn),-5%
COc1ccc(NC(=O)CCCN2C(=O)C3C4C=CC(C4)C3C2=O)c(OC)c1 (stereo not drawn),21%
CN1C(=O)N(C)C2(c3ccccc3)Nn3c(s/c(=C/c4ccco4)c3=O)=NC12c1ccccc1 (stereo not drawn),71%
CCSc1nnc(NC(=O)c2cccnc2)s1,-10%
COc1ccc(-c2nc(SCC(=O)N3CCOCC3)n[nH]2)cc1,-9%
COc1cccc(C(=O)Nc2ccc(S(=O)(=O)NCc3ccco3)cc2)c1,?
COc1ccc(-n2c(N)c(-c3nc4ccccc4n3C)sc2=S)cc1,2%
CCOC(=O)c1c(CN2CCOCC2)oc2ccc(OC)cc12,61%
O=C(Cc1ccccc1)CC1(O)C(=O)Nc2ccccc21 (stereo not drawn),5%
COC(=O)C1CCN(S(=O)(=O)c2c(C)n(C)c(=O)n(C)c2=O)CC1,-1%
COc1ccc(NC(=O)COC(=O)c2ccc(N3CCCC3=O)cc2)cc1OC,10%
Cc1cc(OCCCC(=O)N2CCCCC2)cc(C)c1Cl,121%
Cn1cc(C(=O)c2ccc(Cl)cc2)cc1-c1nc2ccccc2n1C,35%
COCCOC(=O)C1=C(C)NC(C)=C(C(=O)OC(C)C)[C@H]1c1cccc([N+](=O)[O-])c1,47%[12.8 µM]
COc1ccccc1-c1nc(SCC(=O)O)n[nH]1,-3%
COCCOC(=O)c1cc(C(=O)c2cc(F)ccc2O)coc1=N,-2%
O=c1[nH]cnc2cc(Cl)ccc12,-1%
Cc1cnc(NC(=O)C(C)N2C(=O)C3CC=CCC3C2=O)s1 (stereo not drawn),20%
Cn1c(-c2ccc3c(c2)OCO3)cnc1NCc1ccccc1,10%
Cc1cc(C)nc(NC2=NCC(=O)N2c2ccc(F)c(Cl)c2)n1,5%
O=c1cc(-c2ccccc2)[nH]c2nc(Cl)ccc12,-7%
O=C1CCCCC1Sc1nnc(Cc2cccs2)n1CCc1ccccc1 (stereo not drawn),48%
Cc1cnc(-c2nnc(N(C)C(=O)C3CCOC3)s2)cn1 (stereo not drawn),0%
CC(C)N=C(N)/N=C(\N)Nc1ccc(Cl)cc1,0%[12.8 µM]
CN1C(=O)C(O)(C2COC(C)(C)CC2=O)c2cc(Br)ccc21 (stereo not drawn),7%
CN1CCN(CC(=O)N(Cc2c(C#N)c3ccccc3n2C)c2ccccc2)CC1,55%
CCC(=O)N(Cc1ccco1)c1nc(-c2cc(OC)ccc2OC)cs1,11%
O=c1c(-c2ccccc2)nc2cnc(Oc3ccccc3)nc2n1C[C@H]1CCCO1,63%
CCCCCOC(=O)Cc1c(O)c2ccccc2[nH]c1=O,-10%
Cc1oc(C(=O)O)cc1CSc1nnc(-c2ccccc2)n1C,-8%
Cc1ccc(-n2c(=O)[nH]c3c(C(N)=O)nc(CC(C)C)nc32)cc1,-1%
N#Cc1nc(-c2ccc(OCc3ccc(Cl)cc3)cc2)oc1N1CCOCC1,-8%
COc1ccc(-c2nc3cnc(N(C)C)nc3n(CCc3ccccc3)c2=O)cc1,2%
CC1CN(c2cc(=O)n(-c3cccc(Br)c3)c(=O)[nH]2)CC(C)O1 (stereo not drawn),9%
Cc1nc2cc(NC(=O)N3c4ccccc4CC3C)ccc2n1C (stereo not drawn),27%
CC(=O)OCC(=O)[C@@]1(O)[C@H](C)C[C@@H]2[C@H]3CCC4=CC(=O)C=C[C@]4(C)[C@]3(F)[C@@H](O)C[C@@]21C,22%[12.8 µM]
Cc1cc(NC(=O)Cn2cnc3sc(C)c(-c4ccccc4)c3c2=O)no1,15%
Cc1ccc(Cn2c(SCc3cccnc3)nc3c2c(=O)n(C)c(=O)n3C)cc1,64%
Cc1ccc(S(=O)(=O)O)c(C)c1N1CCCC1=O,-5%
CCc1ccccc1N1CSC2=C(C#N)C(c3ccccc3F)CC(=O)N2C1 (stereo not drawn),13µM*[single pt active]

Another view of 2 compounds above.
> Cc1ccc(S(=O)(=O)O)c(C)c1N1CCCC1=O
  AmpC inh no det: -5%
> CCc1ccccc1N1CSC2=C(C#N)C(c3ccccc3F)CC(=O)N2C1 (stereo not drawn)
  AmpC inh no det: 13µM*[single pt active]

Next part.
SMILES,AmpC inh no det
Cc1cc(NCCN(C)C)n2nc(-c3cccs3)cc2n1,-7%
C=CCNS(=O)(=O)c1ccc(OC)c(C)c1,12%
Cc1noc(C)c1COC(=O)Cc1ccc(Cl)c(Cl)c1,10%
Cc1cccc(NCc2ccccc2O)c1C,-17%
CC1CCCN(CC(O)COc2ccc(Cl)cc2)C1 (stereo not drawn),-11%
O=C1C2C(C(=O)N1Cc1ccco1)C1C=CC2C12CC2 (stereo not drawn),1%
O=C(NCc1ccco1)C1CCN(S(=O)(=O)N2CCC3(CC2)OCCO3)CC1,9%
Cc1cc(C(N)=O)c2cc(Br)ccc2n1,-6%
OC[C@@H]1NC[C@@H](O)[C@H]1O,5%
CCOC(=O)N1CCC(NCCNC(=O)c2ccc(Cl)cc2)CC1,17%
CCOC(=O)CCc1nc2ccccc2[nH]1,-3%
Cc1ccc(-c2nn3c(C)nnc3s2)cc1NC(=O)c1cccnc1,14%
CN(C)c1ccc(/C(=N\O)c2ccccc2)cc1,-13%
C=CCNc1nc(N)c(C(=O)Nc2cc(C)on2)s1,0%
CNC(=O)/C(=N\O)c1ccccc1,-15%
Cc1cc(=O)oc2c(CN3CCOCC3)c(O)ccc12,-1%
COc1ccccc1-c1cc(C(=O)Nc2cc(C)n(Cc3ccc(Cl)cc3)n2)no1,-21%
CCCCOC(=O)Nc1nnc(COc2ccccc2)s1,-7%
Cc1nc2c(O)cccc2c(=O)[nH]1,-6%
CCCc1cc(C(=O)Nc2sc(C(C)=O)c(C)c2C(=O)OCC)no1,10%
COc1ccc(N2C(=O)C3C4C=CC(C4)C3C2=O)nn1 (stereo not drawn),-5%
CCc1cc2c(=O)c(-c3nc4ccccc4n3C)c(C(C)C)oc2c(CN2CCN(C)CC2)c1O,153%
CC1(C)CC(=O)C2=C(C1)N(c1cccc(O)c1)C1=C(C2)C(=O)CC(C)(C)C1,23%
Cc1ccc(-c2nnn(CC(=O)N3CCN(c4nc5ccccc5s4)CC3)n2)cc1,-18%

As entered above.
Cc1cc(=O)oc2c(CN3CCOCC3)c(O)ccc12 in AmpC inh no det reads -1%
CC1(C)CC(=O)C2=C(C1)N(c1cccc(O)c1)C1=C(C2)C(=O)CC(C)(C)C1 in AmpC inh no det reads 23%

(next part)
SMILES,AmpC inh no det
COc1cccc(N2CC(C(=O)Nc3c(C)cccc3C)CC2=O)c1 (stereo not drawn),28%
COc1cc2nc(CN3CCN(c4ncc(C(F)(F)F)cc4Cl)CC3)[nH]c(=O)c2cc1OC,77%
Cc1ccc(S(=O)(=O)NCc2ccccc2)cc1,-12%
N#C/C=C1\Sc2ccccc2C(=O)N1CC(=O)N1CCN(S(=O)(=O)c2ccccc2)CC1,3%
c1ccc(-c2ccccc2-n2cnnn2)cc1,-5%
C(=N\c1nccs1)/c1c[nH]c2ccccc12,1%
COC(=O)C1=C(N)OC2=C(C(=O)CC(C)(C)C2)C1c1ccoc1 (stereo not drawn),-2%
CCN1CCCC1CNC(=O)Cn1cnc2ccc(S(=O)(=O)N3CCC(C)CC3)cc2c1=O (stereo not drawn),29%
c1csc(Cc2nc3ccccc3[nH]2)c1,-2%
O=C(Oc1nsnc1N1CCOCC1)N1CCOCC1,-1%
CN(Cc1ccccc1)S(=O)(=O)c1ccc(S(=O)(=O)N2CCN(CCC#N)CC2)cc1,14%
COc1ccc2[nH]c(=O)c(CN(C)C(=O)C3CCCCC3)cc2c1,11%
Cc1ccsc1CN1CCN(c2ccccn2)CC1,10%
Cc1noc(C)c1COC(=O)CCCc1c[nH]c2ccccc12,13%
Cc1ccc(C)c2[nH]c(=O)c(CCNC(=O)CC(C)(C)C)cc12,14%
Cc1cc(C)nc(N2CCC(C(=O)NCCc3ccccc3)CC2)n1,16%
Cc1cc(C)c2nc(SCC#N)cc(C)c2c1,-12%
CC(C)c1ccc(NS(=O)(=O)c2ccc3[nH]cc(C(=O)N4CCC(C(N)=O)CC4)c(=O)c3c2)cc1,53%
Nc1ccn([C@@H]2O[C@H](COC(=O)C34CC5CC(CC(C5)C3)C4)[C@@H](O)[C@@H]2O)c(=O)n1,-1%[5.75 µM]
O=C(O)c1cccc(N2C(=O)CCC2=O)c1,0%
Cc1cc(C)n(-c2nc(C)nc3sc4c(c23)CCC(C)C4)n1 (stereo not drawn),44%
COc1cc2c(C#N)c(N3CCCCC3)nc(N)c2c(N)n1,25%
Cn1cc(S(=O)(=O)N2CCN(C(=O)c3ccco3)CC2)c(=O)n(C)c1=O,-7%
CC(N)CN (stereo not drawn),4%

A draw from above in order of SMILES length, smallest number first.
SMILES,AmpC inh no det
CC(N)CN (stereo not drawn),4%
Cc1ccsc1CN1CCN(c2ccccn2)CC1,10%
O=C(O)c1cccc(N2C(=O)CCC2=O)c1,0%

Next compounds
SMILES,AmpC inh no det
CC(C)CC(NC(=O)C1CCCCC1)C(=O)N1CCC2(CC1)OCCO2 (stereo not drawn),26%
O=C(Nc1ccc(F)cc1)N1CCOCC1,-4%
Cc1occc1-c1nnc(SCC(=O)N2CCCc3ccccc32)n1Cc1ccco1,60%
COc1ccccc1N1CCN(C(=O)c2ccccc2Oc2ccccc2)CC1,117%
O=C(CCS(=O)(=O)c1ccc(Br)cc1)N1CCC2(CC1)OCCO2,13%
OC/C(Br)=C(\Br)CO,-17%
CCNc1c(N)c(=O)oc2ccccc12,-2%
O=C(Cc1ccccc1)OCc1ccccc1,-7%
CC1(C)Cc2c(c(-c3ccccc3)[nH]c(=O)c2C#N)CO1,-5%
O=C1c2ccccc2C(=O)N1Cc1ccc2c(c1)OCO2,-8%
COc1ccc2[nH]cc(CCNC(C)=O)c2c1,-10%
CO[C@H]1C=C2CCN(C)[C@@H]2[C@@H]2c3cc4c(cc3C(=O)O[C@H]21)OCO4,-5%[12.8 µM]
N#CC1=C(N)C(C#N)(C#N)C(c2ccc[nH]2)C2CCCC=C12 (stereo not drawn),-4%
Cc1ccc(C(=O)Nc2ncc(Cc3ccc(F)cc3)s2)o1,-14%
Cc1cc(OCC(=O)Nc2cc(C)nn2-c2ccccn2)c2c3c(c(=O)oc2c1)CCC3,11%
CC(C)(C)Nc1c(N)c(=O)oc2ccccc12,-1%
CN(Cc1ccco1)c1nc(-c2cccnc2)nc2ccccc12,61%
Cc1n[nH]c(C)c1S(=O)(=O)N1CCN(c2ccccn2)CC1,-8%
O=c1[nH]c2ccc(S(=O)(=O)N3CCN(c4ccccc4F)CC3)cc2s1,-17%
Cc1c(Cl)cccc1NC(=O)CCN1CCCC(C)C1 (stereo not drawn),2%

High-throughput results: PubChem, National Center for Advancing Translational Sciences (NCATS)
